# NPYLR7 ag = activates Aedes aegypti NPYLR7 receptor; activation, % at 10 µM; 270,000 tested, 0.15% active; HEK293T NPYLR7/Galpha15, GCaMP6s calcium fluorescence; in the data active means activation above about 40%;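 further: 0% = vehicle and 100% = reference agonist at the receptor; some compounds past the cut are filed as inactive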
# NPYLR7 ag max-min = recorded beside NPYLR7 ag, whose call it bears; activation, %; measured here: Max-Min RFU normalised activation; some inactives read as strong as hits;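 span of the calcium signal over five minutes; 0% = vehicle and 100% = native peptide agonist; compound fluorescence can raise it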
# Numbers without * were called inactive; & = joins results of further samples. Only part of the results is shown; the hit share may differ from the screen's.
SMILES,NPYLR7 ag,NPYLR7 ag max-min
COc1ccc(NC(=O)N2CCN(c3nc(Cc4ccc(C)cc4)nc4onc(-c5cccnc5)c34)CC2)c(OC)c1,24,32
COc1cccc(-c2nn(-c3ccccc3)cc2CN(Cc2c(C)nn(C)c2C)C2CC2)c1,11,1
COc1cc(Nc2ccc(NC(=O)C(C)C)cc2)nc(C)n1,10,0
CCCCCCCc1c(O)nc(SCCN(CCC)CCC)[nH]c1=O,5,8
COC1CCCCC1NC(=O)N[C@H](CCO)c1ccccc1 (some centres undefined),5,5
CCOc1ccccc1NC(=O)CSc1ncnc2sc3c(c12)CCCC3,-6,-9
O=C(NCC1CCN(c2ncccn2)CC1)Nc1ccccc1Cl,-8,-7
Cc1oc(NC(=O)CCl)c(C#N)c1C,13,13
COc1ccc(S(=O)(=O)NCCc2csc3nc(-c4cccs4)nn23)c(OC)c1,17,7
CSc1ncccc1C(=O)N(C)Cc1nc(C)no1,0,-3
O=C(O)CC/C(=N/NC(=O)c1ccccc1Br)c1ccccc1,-1,4
Cc1cc(C)nc(SCc2cnc(C)nc2N)n1,10,4
O=C(N1CCOCC1)N1CCN(Cn2nc(-c3cccc(Cl)c3)oc2=S)CC1,6,4
CCCCCCC(=O)N(C)C(C)C(=O)c1c(C)c(C(=O)OCC)n(C)c1C (centres undefined),0,6
O=C(CCc1ccc(-c2ccc(Cl)cc2)[nH]1)N1CCCn2cncc2C1,24,18
N#CC1(c2ccccc2)CCN(C(=O)C2CC=CCC2C(=O)NCCNc2ccc([N+](=O)[O-])cn2)CC1 (centres undefined),3,0
Cc1nn(C)c(C)c1CCC(=O)NC[C@H]1C[C@H]2C=C[C@H]1C21CC1,4,-1
N#Cc1ccc(C=Cc2nc(-c3ccc(F)cc3)cs2)cc1,7,3
O=S(=O)(NCCc1nnc2ccc(SCc3ccc(C(F)(F)F)cc3)nn12)c1ccccc1,10,1
COc1cccc(C(=O)N(CCN2CCOCC2)Cc2nccn2Cc2cccc(Cl)c2)c1,6,10
Cc1ccc(CN2CCC(CNC(=O)CN3CCOC3=O)CC2)o1,2,2
CCn1cc(C(=O)Nc2ccccn2)c(=O)c2cc(Cl)ccc21,1,-3
COc1nc2ccccc2cc1-c1cc(F)cc(F)c1O,10,-3
O=S1(=O)CCC(N(Cc2cccnc2)C(=S)NC2CCCCC2)C1 (centres undefined),-6,-7
CC(C)CCNC(=O)CSc1n[nH]c(/C=C/c2ccco2)n1,2,0
C=C(C)CN1CCN(c2cc(C)nc3cc(-c4ccc(OC)c(OC)c4)nn23)CC1,3,4
COc1ccccc1OCCNC(=O)C1(c2ccccc2)CCN(C(C)=O)CC1,7,1
Cc1cccn2c(=O)nc(SCc3ccccc3F)nc12,3,2
COc1cc2nc(/C(C#N)=C/c3ccc(N(C)C)cc3)[nH]c(=O)c2cc1OC,-1,-5
Cc1ccc(C2SCCN2C(=O)Nc2ccccc2)s1 (centres undefined),9,25

# For reference, part of the list above:
SMILES,NPYLR7 ag,NPYLR7 ag max-min
COc1ccccc1OCCNC(=O)C1(c2ccccc2)CCN(C(C)=O)CC1,7,1
Cc1cccn2c(=O)nc(SCc3ccccc3F)nc12,3,2
COc1cc2nc(/C(C#N)=C/c3ccc(N(C)C)cc3)[nH]c(=O)c2cc1OC,-1,-5

# Later entries
SMILES,NPYLR7 ag,NPYLR7 ag max-min
Nc1nc(C23CC4CC(CC(C4)C2)C3)cs1,7,6
CC(C)C(=O)NCc1ccc(C(=O)N2CCC3(CCOCC3)CC2)cc1,4,1
COc1ccccc1N1CCN(C(=O)c2csc(CSc3nnc(-c4ccccc4Cl)n3-c3ccccc3F)n2)CC1,14,10
CN(C(=O)c1nc2ccccc2[nH]c1=O)C1Cc2ccccc2C1,5,3
c1cnc2nc(-c3nn4c(C5CC5)nnc4s3)ccc2c1,0,-1
Cc1ccccc1N=c1oc2ccccc2cc1-c1nc2ccccc2[nH]1,-9,-11
Cc1cc(Cl)c(C)c(S(=O)(=O)Oc2ccccc2C#N)c1Cl,-5,-7
CC1(C(=O)NS(=O)(=O)Cc2cccc(Cl)c2)CCN1C(=O)c1ccccc1 (centres undefined),1,-2
CN(C)S(=O)(=O)c1ccc(C(=O)N(Cc2cccnc2)c2nc3c(F)cccc3s2)cc1,-25,-20
CCn1nc(C)cc1C(=O)Nc1nnc(-c2ccno2)o1,-1,4
CCOC(=O)c1c(C=CC(=O)c2ccc(I)cc2)ccc(OC)c1OC,-1,-8
C=Cn1cc[n+](CC(=O)c2cccs2)c1,-1,-7
COC(=O)c1[nH]c2c(c1C)C(=O)C(C(=O)OC)C(C)C2 (centres undefined),14,6
NC(=O)Cn1c(=O)n(-c2ccccc2)c(=O)c2oc3ccccc3c21,-3,-3
O=C(O)C=C1C(=O)Nc2ccccc21,-1,-1
CCc1nc(CC(=O)Nc2ccc(C)cc2)sc1C,5,2
CCSCCOC(=O)C1=C(C)NC(=O)NC1c1ccc(N(C)C)cc1 (centres undefined),4,3
CCOC(=O)C1(CCOc2ccccc2)CCN(Cc2ccc3c(c2)OCCO3)CC1,16&11,10&15
C/C(=N/O)C12CC3(C)CC(C)(CC(C)(C3)C1)C2,8,2
COc1ccc(-c2nn(-c3ccccc3)cc2CC#N)cc1OC,-1,-1
Cc1cc(NC(=O)c2cn(C)c3c(=O)n(-c4ccc(Cl)cc4)c(=O)[nH]c23)ccc1Br,1,-1
O=C(NCCn1ncc2c(=O)n(Cc3ccc(Br)cc3)cnc21)c1ccc(F)cc1,-5,-11
O=C(O)CCN1C(=O)CSC1c1ccccc1F (centres undefined),-3,-8
Cc1noc(C)c1C(=O)Nc1nc(C(C)(C)C)cs1,5,10
CCCN(CC(=O)Nc1c(-c2ccccc2)c(C)nn1-c1ccc(C)cc1)C(=O)c1cc(OC)cc(OC)c1,-1,7
CCCCN(CC(=O)N1CC(=O)N(c2cccc(C)c2)C1)C(=O)Nc1ccccc1C(F)(F)F,-3,-3
CCOC(=O)c1oc2c(c1C)-c1[nH]ncc1CC2,-9,-7
Cn1c(=O)n(C)c2cc(Cn3cnc(-c4ccccc4)c3C3CC3)ccc21,-3,-7
Cc1cccc2[nH]c(COCC(=O)N3CCC4(CN(C)C(=O)O4)C3)nc12 (centres undefined),8,7
Cc1cccnc1CCn1cnc(-c2ccccc2)c1-c1cccc2nonc12,-4,-9
CC(C)(C)c1ccc(C(=O)N2CCN(c3nc4nccc(-c5ccc(N6CCOCC6)cc5)n4n3)CC2)cc1,2,-1
Cc1ccc(-n2nc3c(c2NC(=O)C24CC5CC(CC(C5)C2)C4)CS(=O)(=O)C3)c(C)c1,8,5
Cc1cc2nc(-c3ccc(NC(=O)c4cc([N+](=O)[O-])ccc4Cl)cc3)oc2cc1C,-3,3
O=C(NCCc1ccccc1)c1cc(NC(=O)C(c2ccccc2)c2ccccc2)ccc1N1CCCCC1,1,11
Cc1ccc(S(=O)(=O)NNC(=O)c2cc(Br)ccc2O)cc1,-3,-6
COc1ccc(-c2ncc(Cl)cn2)c(C)c1,15,22
CCc1ccc(NC(=O)CSc2nc(=O)n3cccc(C)c3n2)cc1,5,2
O=C(NNc1ccnc2cc(Cl)ccc12)c1ccsc1,8,6
O=C(c1cc(-c2ccccc2)on1)N1CCC2(CC1)C(=O)Nc1ccccc12,17,10
O=C1CSC(c2cccc(F)c2)N1c1ccccc1F (centres undefined),-5,-11
FC(F)(F)c1ccccc1-n1c(COc2ccccc2)n[nH]c1=S,-6,-12
CCS(=O)(=O)Nc1ccc(-c2n[nH]c(CCc3ccccc3)n2)cc1,21,11
Cc1ccc2oc(CN(C(=O)c3ccc(F)cc3F)C(C)C)nc2c1,1,-1
CCCS(=O)(=O)Nc1ccc(-c2ccc(S(=O)(=O)CC)nn2)cc1,6,0
CCn1cnnc1CN(C)C(=O)c1scc2c1CCCC2,3,0
CCc1nc(-c2ccccc2)nc(N2CCN(S(C)(=O)=O)CC2)c1Cc1ccc(F)cc1,1,8
CC(N)c1ccccc1NS(C)(=O)=O (centres undefined),-2,-2
Cc1ccccc1S(=O)(=O)NC(=O)C1(C)CCN1C(=O)C1(c2ccc(Cl)cc2)CC1 (centres undefined),0,-1
COc1cccc(Cc2nsc(N3CCN(CCNC(=O)Nc4c(C(C)C)cccc4C(C)C)CC3)n2)c1,-10,-12
CCCC(O)CNc1ccc(-n2nc(OCC)nc2-c2ccccc2C)cc1 (centres undefined),-2,4
Cc1cnc(C(=O)N2CCCC(CCC(=O)Nc3ccc(C(F)(F)F)cc3)C2)cn1 (centres undefined),5,3
CCc1ccc(S(=O)(=O)NCc2ccc3c(c2)OCO3)cc1,-2,-5
CN(C)S(=O)(=O)NCC1CCCN(Cc2ccc(-c3ccccc3)cc2)C1 (centres undefined),-4,8
CCN1CCCC1CNC(=O)[C@H](CC(C)C)N1CC[C@@]2(CCCN2C(=O)CCC2CCCC2)C1=O (some centres undefined),6,5
O=c1ccc(-c2cccc(Br)c2)nn1Cc1ccccc1,15,8
CCCn1nccc1C(=O)N1CCc2c(nc(-c3cccnc3)[nH]c2=O)C1,7,3
C=C(C)CN(CC)c1ncnc2c1c(Br)nn2C,4,1
COC(=O)c1cc2n(n1)CCCN(C(=O)CC(=O)Nc1cccc(C)c1)C2,5,-3
COc1cccc(-n2nnc3c(SCC(=O)NC4CCCCC4)ncnc32)c1,10,16
Cc1ccccc1NC(=O)CSc1nc(=O)n(CCCN(C)C)c2c1CCC2,1,-2

# Next part
SMILES,NPYLR7 ag,NPYLR7 ag max-min
Cc1nc(SCC(=O)N2CCN(C(=O)c3ccco3)CC2)c(C(N)=O)c(C)c1C,10,3
CC(C)=NOC(C)C(=O)N1CCC2(CCN(C)C2=O)CC1 (centres undefined),11,33
O=C1CCC(C(=O)N2CCN(c3ccccc3)C(=O)C2)CN1CCc1ccc(Cl)cc1 (centres undefined),1,-3
O=C(NC(c1ccccc1)c1ccccc1)N1CCC(c2nnc(C3CC3)o2)CC1,-15,-22
Nc1ccc(S(N)(=O)=O)cc1,-2&-5&-1,-8&-8&-4
CSCCC(NS(=O)(=O)c1ccccc1)C(=O)N1CCC(C)CC1 (centres undefined),-6,-5
O=C(O)C1CN(S(=O)(=O)/C=C/c2ccccc2)c2ccccc2O1 (centres undefined),-2,-3
CCc1ccc(Cl)c(CC)c1NS(=O)(=O)c1ccc(C(C)=O)cc1,7,1
CCN(Cc1ccc(Cl)cc1)C(=O)Cc1nn[nH]n1,6,7
COc1cc(-c2ccc(NN=C3C=Cc4c(S(=O)(=O)O)cc(S(=O)(=O)O)c(N)c4C3=O)c(OC)c2)ccc1NN=C1C=Cc2c(S(=O)(=O)O)cc(S(=O)(=O)O)c(N)c2C1=O,-6,-10
COc1cccc(-c2nc(C(=O)Nc3cccc(Cl)c3)cs2)c1OC,14,7
COc1ccccc1CN1CCNC(=O)C1CC(=O)N1CCC(O)(c2ccccn2)CC1 (centres undefined),5,-1
O=C(Cn1c(=O)oc2cc(S(=O)(=O)N3CCCC3)ccc21)N1CCCC1,7,5
Cc1cc(C)n2ncc(CN3CC[C@@H](c4sccc4C)[C@H](O)C3)c2n1,9,6
CCCCn1ncc(C)c1NC(=O)c1sc2ncn(C)c(=O)c2c1C,13,5

# Whole records from above. Values in the order: NPYLR7 ag	NPYLR7 ag max-min
# Profile of CC(C)=NOC(C)C(=O)N1CCC2(CCN(C)C2=O)CC1 (centres undefined) → 11	33
# Profile of O=C(Cn1c(=O)oc2cc(S(=O)(=O)N3CCCC3)ccc21)N1CCCC1 → 7	5
# Profile of O=C(O)C1CN(S(=O)(=O)/C=C/c2ccccc2)c2ccccc2O1 (centres undefined) → -2	-3
# Profile of CCN(Cc1ccc(Cl)cc1)C(=O)Cc1nn[nH]n1 → 6	7

# Following part
SMILES,NPYLR7 ag,NPYLR7 ag max-min
CCn1c(CN2CCCCCC2=O)nnc1SCc1cc(=O)n2ccsc2n1,3,2
Oc1ccc2ccccc2c1C=NCCN=Cc1c(O)ccc2ccccc12,3,1
CCOc1ccccc1N1CCN(C(=O)c2cc(-c3ccccc3)nc3cc(C(C)(C)C)nn23)CC1,14,14
CCCNC(=O)C1(C)CCCN(C/C=C/c2ccccc2)C1 (centres undefined),5,-1
COc1ccc2cc(C(=O)c3cc4c(cc3F)NC(=O)CC4)oc2c1,6,5
O=C(N/N=C\c1cccnc1)c1cc(-c2cccs2)[nH]n1,8,3
Cc1ccc(NC(=O)NCCS(=O)(=O)c2c(C)n(C)c3ccccc23)cc1,5,13
CC(C)c1cc(C(=O)NC(Cn2ccnc2)C(C)C)nc2ncnn12 (centres undefined),-4,-3
Cc1nn(-c2ccccc2)c(Oc2ccccc2)c1CO,1,1
CCC(NC(=O)Cc1c(C)nc2ccccn12)c1ncccc1C (centres undefined),7,2
CC1(C(=O)Nc2cccc3ccccc23)CCN1C(=O)Cc1ccccc1Cl (centres undefined),7,5
COc1cc(OC)cc(-n2c(CCC(=O)NCCC#N)cc3c2-c2ccccc2CC3)c1,1,-2
COc1cccc(C=C(C#N)c2nc(C)cs2)c1OC,2,-1
O=C(O)CSc1ccc(SC(F)(F)C(F)(F)C(F)(F)F)cc1[N+](=O)[O-],-12,-20
COC(=O)c1csc(CN(C(=O)COc2ccccc2)C2CC2)n1,-10,-19
CCCCOc1ccc(C(=O)N2CCN(C(=O)CCCSc3nnc(Cc4ccccc4)n3-c3ccccc3)CC2C)cc1 (centres undefined),25,21
CCc1cc(C(=O)N(C)C)sc1C,12,6
CC(C)CN1CC23C=CC(O2)C(C(=O)O)C3C1=O (centres undefined),6,2
CC(=O)[C@H]1CCC2C3CC=C4C[C@@H](O)CC[C@]4(C)C3CC[C@@]21C (some centres undefined),-3,-6

# Structural class, the entries above containing a tert-butyl group.
SMILES,NPYLR7 ag,NPYLR7 ag max-min
Cc1noc(C)c1C(=O)Nc1nc(C(C)(C)C)cs1,5,10
CC(C)(C)c1ccc(C(=O)N2CCN(c3nc4nccc(-c5ccc(N6CCOCC6)cc5)n4n3)CC2)cc1,2,-1
CCOc1ccccc1N1CCN(C(=O)c2cc(-c3ccccc3)nc3cc(C(C)(C)C)nn23)CC1,14,14

# Source: PubChem
